Assay outcomes as filed in PubChem BioAssay.
Rango release inh – qHTS Assay for Inhibitors of RanGTP induced Rango (Ran-regulated importin-beta cargo) - Importin beta complex dissociation; Snurportin-1 (Homo sapiens) + GTP-binding nuclear protein Ran (Homo sapiens) + Importin …; Biochemical FRET Rango-importin beta, RanGTP-induced dissociation; Potency, µM (series often up to 46.1 µM), for the others: top-dose activity change, negative = inhibition; actives 0.071% (n = 340,000); AID 540253, 2011; active means falling FRET ratio curve, often poorly fitted, with flat reads before Ran was added; inconclusive means other falling curves, or compound fluorescence or quenching; inactive means flat or rising ratio curve;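 note: potency is the fitted concentration of half-maximal effect; % of control where 0% means no effect; nearly all actives have a fitted effect of over 45% in size; -100% = wells without RanGTP and RCC1; the record marks most hits as doubtful in a second field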
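Quantitative HTS using a FRET biosensor: 0.1 uM Rango, 0.25 uM importin beta, 0.6 uM Ran, 2 mM GTP, 0.2 uM RCC1 final, PBS with DTT, Tween-20 and BSA. Post-read taken 45 min after Ran addition.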
miR-21 FLuc – qHTS Assay for Modulators of miRNAs and/orActivators of miR-21; HeLa miR-21 FLuc reporter, luciferase, 48 h; Potency, µM (titrated, usually from 38.3 µM), without a hit: top-dose reporter change, positive = more light; 340,000 tested, under 10 active; active = well fitted rising curve with a large enough effect; inconclusive = small, poorly fitted or top-dose-only effect; inactive = no such curve, though single readings can be large or run the other way;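 note: % of control where 0% means no effect; miR-21 action dims this reporter so a rising signal means less miR-21 action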
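Compounds were titrated across several concentrations (up to approximately 40 uM) and incubated 48 hours with HeLa miR-21-FLuc reporter cells (miR-21 target sequence downstream of FLuc, endogenous miR-21). Readout was firefly luciferase luminescence after lytic detection reagent.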
GLA inh pH 4.5 – qHTS Assay for Inhibitors of Human alpha-Galactosidase at pH 4.5; purified enzyme, 4-MU-alpha-Gal fluorescence, pH 4.5; activity change, negative = inhibition, % at 105 µM; Alpha-galactosidase A (Homo sapiens), P06280; 230,000 tested, under 10 active; inconclusive = small, poorly fitted or top-dose-only inhibition, or a rising curve; inactive = flat fitted curve, though single readings scatter; no compound was filed as active;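 note: 0% = full activity with enzyme and -100% = basal without enzyme; dose as in the result columns while the protocol names 77 µM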
Rango-impB inh – qHTS Assay for Inhibitors of Rango (Ran-regulated importin-beta cargo) - Importin beta complex formation; actives 0.031% (n = 340,000); Rango CFP/YFP FRET sensor + importin beta, 45 min; Potency, µM (series often up to 92.2 µM), inactives show at the top dose inhibition of complex formation; Importin subunit beta-1 (Homo sapiens), Q14974; active = rising FRET ratio curve, often small or poorly fitted; inconclusive = mostly compound fluorescence or quenching in the first reads; inactive = flat curves in all reads;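 note: potency is the fitted concentration of half-maximal effect; 0% = DMSO wells and 100% = buffer wells lacking importin beta; nearly all actives have a fitted effect of over 15% in size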
Target sequence (Q14974 whole entry, looked up): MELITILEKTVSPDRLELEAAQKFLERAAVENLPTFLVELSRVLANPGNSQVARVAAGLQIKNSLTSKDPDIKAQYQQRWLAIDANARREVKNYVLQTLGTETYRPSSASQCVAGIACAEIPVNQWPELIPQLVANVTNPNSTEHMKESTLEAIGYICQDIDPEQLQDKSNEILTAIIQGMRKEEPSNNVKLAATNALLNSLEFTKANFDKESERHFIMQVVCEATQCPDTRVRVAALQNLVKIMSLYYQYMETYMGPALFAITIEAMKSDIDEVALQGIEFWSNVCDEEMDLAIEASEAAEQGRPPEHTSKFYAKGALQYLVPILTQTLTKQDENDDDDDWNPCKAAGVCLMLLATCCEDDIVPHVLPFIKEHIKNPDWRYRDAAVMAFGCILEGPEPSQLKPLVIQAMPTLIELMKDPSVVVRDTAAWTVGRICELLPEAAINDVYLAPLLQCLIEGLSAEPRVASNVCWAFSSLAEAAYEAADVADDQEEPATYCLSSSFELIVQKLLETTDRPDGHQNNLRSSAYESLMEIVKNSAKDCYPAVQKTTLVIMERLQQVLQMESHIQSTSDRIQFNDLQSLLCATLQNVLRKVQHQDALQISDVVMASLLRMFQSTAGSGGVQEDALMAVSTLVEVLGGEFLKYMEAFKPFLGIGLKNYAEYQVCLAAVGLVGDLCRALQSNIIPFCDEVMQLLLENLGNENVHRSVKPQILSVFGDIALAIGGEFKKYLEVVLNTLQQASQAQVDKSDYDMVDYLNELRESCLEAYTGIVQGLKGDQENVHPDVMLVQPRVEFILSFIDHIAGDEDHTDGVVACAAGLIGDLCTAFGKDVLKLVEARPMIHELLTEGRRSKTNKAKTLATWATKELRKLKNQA
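Inhibition scored from the CFP 486 nm/YFP 530 nm FRET ratio 45 min after adding 0.125 microM importin beta to 50 nM Rango biosensor preincubated 5 min with compound (room temperature, PBS with DTT, Tween-20, BSA). No-importin wells as positive control.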
An asterisk follows results filed as active; ? = inconclusive; . = no result given; & = joins results of further samples.

Rango release inh | GLA inh pH 4.5 | miR-21 FLuc | Rango-impB inh | Structure
1% | . | . | 0.1% | CCOC(=O)[C@@H](C)NS(=O)(=O)N(Cc1ccccc1)[C@H](C(=O)OC)C(C)C
1% | . | -8% | 2.1% | Cc1ccc(N2CCN(c3ccc([N+](=O)[O-])cn3)CC2)c(C)c1
-8% | . | . | -1.7% | COc1ccc(CC(=O)OCC(=O)Nc2cccc(C(C)=O)c2)cc1OC
3% | . | 2% | 1.2% | CC(=O)Nc1ccc(N2Cc3ccccc3C2)cc1
1% | 10 | 0% | 0.4% | COc1ccc(S(=O)(=O)N2CCC(C(=O)N3CCC(C(N)=O)CC3)CC2)cc1Cl
-11% | 2 | -2% | 0.4% | Cc1ccc(C2CC(=O)NC(SCc3ccccc3)=C2C#N)o1 (stereo not drawn)
19% | -15 | -13% | -2.1% | CN1CCN(c2nc3c(c(=O)[nH]c(=O)n3C)n2Cc2cccc3ccccc23)CC1
31% | . | . | 1.4% | CCC1(CC)NC(=O)N(CC(=O)Nc2ccc(-n3cnnn3)cc2)C1=O
-3% | 0 | -1% | -0.3% | COc1cccc(CNc2nn[nH]n2)c1OC
0% | 5 | 1% | 1.9% | CC(=O)c1ccc(NC2OC(CO)C(O)C(O)C2O)cc1 (stereo not drawn)
-1% | -2 | 1% | -2.0% | O=C(CCn1c(=S)[nH]c2ccccc2c1=O)NCCCN1CCCC1=O
0% | . | 2% | 1.4% | COc1ccc(C(c2c(C)n(C)n(-c3ccccc3)c2=O)c2c(C)n(C)n(-c3ccccc3)c2=O)c(OC)c1OC
-3% | . | 0% | -1.7% | O=C(c1ccccc1O)N1N=C(C(F)(F)F)CC1(O)c1ccc([N+](=O)[O-])cc1 (stereo not drawn)
2% | 1 | -6% | -4.9% | CCCCNC(=O)CCCCCNS(=O)(=O)c1ccc(OC)cc1
-17% | 6 | -1% | 1.4% | Cc1cc(C)c(OCCOCCN(C)C)c(Br)c1
2% | . | -5% | 0.7% | CCCc1nnc(NC(=O)CCC(=O)NCc2ccc(Cl)cc2Cl)s1
-19% | 2 | -36% | -3.2% | COc1cc(NC(=O)CCc2ccccc2)nc(OC)n1
4% | 0 | 2% | 0.5% | COc1ccc(CNC(=O)CN(C(=O)Cn2nnc(-c3ccccc3F)n2)c2ccc(C)cc2)cc1
2% | 6 | -5% | -0.2% | Cc1ccc(OCC(O)CN2C(=O)NC(C)(C)C2=O)cc1C (stereo not drawn)
9% | . | -8% | -1.4% | CN(C)CCCn1c(=O)n(Cc2ccccc2)c(=O)c2c3c(sc21)CCCCC3
28% | . | 14% | -1.4% | COc1cccc(CNC(=O)Cn2c(=O)oc3cc(S(=O)(=O)N4CCCCC4)ccc32)c1
-10% | -2 | -6% | -2.3% | Cc1ccc2nc(SCc3ccccc3)c(C=O)c(=O)n2c1
-6% | -1 | -2% | 13% | O=C(NCCN1C(=O)S/C(=C\c2ccc(Cl)c(Cl)c2)C1=O)C1COc2ccccc2O1 (stereo not drawn)
-12% | 1 | -2% | 5.7% | CCOC(=O)c1c(NC(=O)CSc2nnc3ccccn23)sc2c1CCC2
9% | -3 | -2% | 0.3% | CCNCCNC(=O)c1c(O)c2c([nH]c1=O)CCCC2
9% | -1 | 2% | 1.4% | CCN1N=C(C)C=C(c2ccccc2)n2c1nc1ccccc12
1% | 0 | -14% | -0.1% | CCNC(=O)COc1cc(C)c(Cl)c(C)c1
8% | 5 | -14% | 0.0% | COC(=O)c1cc(OC)c(OC)cc1NCC(=O)Nc1ccc(C)cc1
18% | . | . | -4.1% | O=C(NCCC1=CCCCC1)c1c(O)nc2sccn2c1=O
0% | . | -25% | -1.4% | CCc1n[nH]c(=O)c2cc3cc(OC)ccc3n12

Rango release inh | GLA inh pH 4.5 | miR-21 FLuc | Rango-impB inh | Structure
5% | . | . | -0.1% | CC(Oc1cccc(Cl)c1)C(=O)Nc1ccc(S(=O)(=O)Nc2ncccn2)cc1 (stereo not drawn)
1% | -3 | -3% | -3.3% | O=C(COC(=O)CNC(=O)c1ccccc1)Nc1ccc(Cl)cc1C(F)(F)F
1% | -20 | 0% | 0.0% | COc1ccccc1N1CCN(C/C(C)=C/c2ccccc2)CC1
. | -5 | -9% | . | Cc1ccc(-n2[nH]c(C)c(C=Nc3ccc(S(=O)(=O)Nc4nccs4)cc3)c2=O)cc1
16% | -1 | 2% | -0.4% | O=C(COC(=O)c1ccco1)NC(c1ccccc1)c1ccccc1
12% | . | . | 5.5% | CNC(=O)NC(=O)CSc1ccc(S(=O)(=O)N(C)C2CCCCC2)cn1
-11% | -1 | -5% | -4.3% | Cc1cc(C(=O)N2CCN(Cc3ccc4c(c3)OCO4)CC2)on1
2% | . | . | -0.6% | CCCCn1c(N)c(N(CCOC)C(=O)CC(NC(=O)c2ccccc2)c2ccccc2)c(=O)[nH]c1=O (stereo not drawn)
-8% | -8 | 3% | 0.0% | O=C(CSc1ccc(Cl)cc1)Nc1ccc(N2CCN(c3ccccc3)CC2)c(F)c1
? | . | -8% | 1.3% | COc1cccc(C(=O)Nc2cccc(NC(=O)c3cccs3)c2)c1
-2% | 0 | -5% | -0.4% | CC1CN(C(=O)c2ccccc2Sc2ccccc2C#N)CC(C)O1 (stereo not drawn)
-16% | -3 | -1% | -3.3% | COc1ccc(CCNc2nc3c(c(=O)n(C)c(=O)n3C)n2C)cc1OC
-1% | . | 2% | 0.7% | Cc1ccc(C(C)NC(=O)c2cc3cc(Br)ccc3oc2=N)cc1 (stereo not drawn)
? | . | -9% | ? | CNC(=O)N(O)C1N(/N=C/c2ccc(N(C)C)cc2)C(=S)SC1(C)C (stereo not drawn)
7% | 1 | ? | -1.3% | O=C(CCl)Nc1cccc(S(=O)(=O)NC2=NCCC2)c1
-7% | . | -16% | -3.2% | COc1ccc(CC(=O)N2CCc3ccccc3C2)cc1
1% | . | 0% | 1.0% | COC(=O)C(Cc1ccc(O)cc1)NC(=O)CCc1nc2ccccc2s1 (stereo not drawn)
19% | . | -5% | -2.3% | COc1ccc(S(=O)(=O)c2snnc2C)cc1
9% | -5 | -3% | -0.3% | COc1cccc(C2NC(C)(C(=O)O)C3C(=O)N(C(C)C)C(=O)C23)c1O (stereo not drawn)
-6% | -6 | -29% | 0.2% | c1cnc2c(OCc3nc4ccccc4[nH]3)cccc2c1
4% | 8 | 0% | 1.4% | O=C(COC(=O)c1cc(=O)c2ccccc2o1)NC1CCCC1
-11% | -2 | 0% | -0.1% | CC1CN(C(=O)c2cccc(S(=O)(=O)Nc3ccc(Cl)cc3)c2)CC(C)O1 (stereo not drawn)
10% | 0 | 6% | -0.2% | Nc1ncc(Br)cc1S(=O)(=O)NCCC(=O)N1CCN(c2ncccn2)CC1
? | -1 | 4% | ? | CCN(CC)c1ccc(/C=N/NC(=O)c2cccc(S(=O)(=O)Nc3ccccc3OC)c2)cc1
0% | 1 | -4% | 0.7% | Cc1ccc(NC(=O)CN(C)C(=O)COc2c(Cl)cc(Cl)c3ccc(C)nc23)cc1
1% | -5 | 0% | -0.3% | COc1ccccc1NC(=O)N1CCCC(C(=O)Nc2cccc(C)c2C)C1 (stereo not drawn)
2% | . | -6% | -0.8% | COc1cc(S(=O)(=O)NCc2ccccc2)ccc1-n1cnnn1
19% | 3 | -25% | -2.8% | COc1ccc(CC(=O)Nc2cccc(-c3cn4ccccc4n3)c2)cc1
-10% | . | -17% | ? | CN(C)CCn1c(NCc2ccc3c(c2)OCO3)nc2ccccc21
5% | . | . | 0.2% | Cc1ccc(N(Cc2ccccc2)C(=O)c2cccc(S(=O)(=O)N3CCN(C)CC3)c2)cc1

An excerpt from further up:
Rango release inh | GLA inh pH 4.5 | miR-21 FLuc | Rango-impB inh | Structure
1% | -5 | 0% | -0.3% | COc1ccccc1NC(=O)N1CCCC(C(=O)Nc2cccc(C)c2C)C1 (stereo not drawn)
2% | . | -6% | -0.8% | COc1cc(S(=O)(=O)NCc2ccccc2)ccc1-n1cnnn1
19% | 3 | -25% | -2.8% | COc1ccc(CC(=O)Nc2cccc(-c3cn4ccccc4n3)c2)cc1
-10% | . | -17% | ? | CN(C)CCn1c(NCc2ccc3c(c2)OCO3)nc2ccccc21
5% | . | . | 0.2% | Cc1ccc(N(Cc2ccccc2)C(=O)c2cccc(S(=O)(=O)N3CCN(C)CC3)c2)cc1

New compounds follow:
Rango release inh | GLA inh pH 4.5 | miR-21 FLuc | Rango-impB inh | Structure
-3% | . | -5% | 3.5% | C=CCNC(=O)CN1c2cccc3cccc(c23)S1(=O)=O
1% | . | . | -1.1% | Cn1nc(C(=O)OCC(=O)Nc2ccc(SC(F)F)cc2)c2ccccc2c1=O
-7% | 0 | -23% | -3.4% | Cn1ncc2c(NNC(=O)c3ccc(Cl)c(Cl)c3)ncnc21
1% | 18 | -7% | -0.4% | O=C(NC(=S)NC1CCSC1=O)c1ccccc1F (stereo not drawn)
2% | . | -5% | -1.1% | O=C(CCNC(=O)c1ccco1)Nc1ccc(Cl)cc1F
-6% | . | -3%&2% | ? | CCOc1ccc(NC(=O)C(CC)n2nc(C)c3c(C)n(-c4ccccc4)nc3c2=O)cc1 (stereo not drawn)
0% | . | -4% | 4.3% | COc1ccc(S(=O)(=O)N2CCOC2CNC(=O)C(=O)NCCc2ccccc2)cc1OC (stereo not drawn)
-5% | -3 | -8% | 3.9% | COc1ccc(OC)c(NC(=O)CC2C(=O)NCCN2C(=O)Nc2cccc(Cl)c2)c1 (stereo not drawn)
-8% | . | . | 1.1% | NNC(=O)CC1=NNC(=O)C1
0% | -4 | 0% | 0.4% | COc1ccc(C=O)cc1Oc1nc(Cl)ncc1F
8% | -6 | -6% | 5.4% | Cc1nnc(SCC(=O)NC(=O)Nc2ccc3c(c2)OCCO3)s1
0% | 5 | -2% | -1.3% | COc1ccccc1NC(=O)CSCC(N)=O
18% | -2 | -5% | 3.3% | COc1ccc(NC(=O)c2c(NC(=O)CCC(=O)O)sc(-c3ccccc3)c2C)cc1
-6% | -3 | -11% | 1.8% | O=S(=O)(NCc1ccco1)c1cccc(S(=O)(=O)N2CCCCC2)c1
? | -7&-20 | -20% | 0.0% | CCCCCCNC(=O)c1ccc(Br)o1
-3% | . | 0% | 3.7% | CCOc1ccc(CNS(=O)(=O)c2cccs2)cc1OCC
8% | 1 | -9% | 0.6% | CC(C)(C)c1ccc(OCC(=O)NNC(=O)CCc2ccccc2)cc1
? | -15 | 1% | -6.5% | CC(=O)Nc1ccc(Nc2nnc(-c3ccc(C)c(S(=O)(=O)NCC4CCCO4)c3)c3ccccc23)cc1 (stereo not drawn)
1% | . | . | -1.9% | CCCCc1nnc(NC(=O)CN2C(=O)C3CCCCC3C2=O)s1 (stereo not drawn)
-3% | -7 | 8% | -6.5% | O=C(c1ccc([N+](=O)[O-])cc1)N1CCN=C1SCc1ccccc1
-3% | -7 | -4% | ? | CCOC(=O)c1c(NS(=O)(=O)Cc2ccccc2)sc2c1CCCC2
-2% | 2 | -12% | 4.0% | Cc1cccc(CNCc2ccccc2)c1
10% | -6 | -11% | 2.2% | Cn1ncc2c(Nc3ccccc3Cl)nc(Nc3ccccc3Cl)nc21
-12% | . | -11% | 3.0% | CSc1cccc(NC(=O)CCCn2c(=O)c3cccn3c3cccnc32)c1
-15% | ? | 11% | -14% | CC(C)[C@H](NS(=O)(=O)c1ccccc1)C(=O)OCC(=O)N1N=C(c2ccc(Cl)cc2)CC1c1ccco1 (stereo partly drawn)
13% | . | . | 0.3% | Cc1ccc([C@@H]2CC=C(C(=O)O)[C@H](c3ccccc3F)N2S(=O)(=O)c2ccc(C)cc2)cc1

Not all compounds are listed; rates above refer to the full screens.
